Screens (PubChem BioAssay)
StopGo FLuc: FMDV 2A StopGo reporter, firefly signal; HEK cells with a luciferase reporter of 2A StopGo recoding; Potency, µM (titrated, usually from 57.5 µM), without a hit: top-dose signal change, negative = less light; 0.23% of 120,000 active; active = well fitted falling curve with a large enough effect; inconclusive = small, poorly fitted or top-dose-only effect; inactive = no such curve, though single readings can be large or run the other way; note: nearly all actives have a fitted effect of over 60% in size; overnight with compound
StopGo RLuc: FMDV 2A StopGo reporter, Renilla signal. Potency, µM (top dose mostly 57.5 µM), for the others: at the highest dose signal change, negative = less light. HEK cells with a luciferase reporter of 2A StopGo recoding. 0.32% of 120,000 active; active means well fitted falling curve with a large enough effect; inconclusive means small, poorly fitted or top-dose-only effect; inactive means no such curve, though single readings can be large or run the other way; note: nearly all actives have a fitted effect of over 55% in size; overnight with compound
The depositor's hits bear a star; ? = inconclusive; [ ] = remark or other dose. % is set by controls: 0 for no effect and ±100 for the full control effect; potency is the fitted concentration of half-maximal effect.

SMILES	StopGo FLuc	StopGo RLuc
COc1ccccc1C(=O)Nc1cc(C)ccc1OCc1cc(=O)n2oc(C)cc2n1	76%[activator]	78%[activator]
CCn1c(CNC(=O)c2ccc(OC)cc2)nnc1SCC(=O)Nc1ccc(F)cc1	-1%	3%
CNC(=O)NC(=O)CN(C)C(C)c1cccs1 (stereo not given)	-14%	-7%
CC(NC1CC1)c1ccc(Cl)cc1 (stereo not given)	-1%	-9%
N#Cc1ccc(/C=N/Nc2c(Cl)cc(Cl)cc2Cl)cc1	17%	28%
COC(=O)c1nnn(CC(=O)Nc2c(C)cccc2C)c1N	-9%	-4%
Cc1ccc(C(=O)C(C)OC(=O)c2c(C)noc2C)cc1C (stereo not given)	24%	3%
O=C(NC1CCc2ccccc21)c1cc2c(s1)CCC2 (stereo not given)	94%[activator]	99%[activator]
Cn1c(=O)c2c(nc(Sc3ccccc3)n2Cc2ccccc2Cl)n(C)c1=O	-3%	-8%
CC(/C=C/c1ccccc1)=N/NC(=S)NC1CCCCC1	18%	?
Cc1ccc2c(c1)c1c3n2CCN(C(=O)c2cccc(C(F)(F)F)c2)C3CCC1 (stereo not given)	9%	11%
CCc1ccc(NC(=O)CCn2c(=O)c3cccn3c3ccccc32)cc1	-15%	0%
Cc1cc2oc(=O)cc(CN(C)CCOc3ccccc3F)c2cc1C	2%	-1%
CCN(CC)C(=O)Cn1c(=O)n(-c2ccc(C)c(C)c2)c(=O)c2c3c(sc21)CCCCC3	-14%	-2%
O=C(c1ccc2c(c1)N(Cc1cccc(Cl)c1)C(=O)c1ccccc1S2(=O)=O)N1CCCCC1	-16%	142%[activator]
Cc1ccc(Oc2ccccc2NC(=O)CC(C)(C)CC(=O)O)cc1	-2%	4%
O=C(Cn1cnc2ccc(Br)cc2c1=O)N1CCCC1c1ccc2c(c1)OCCO2 (stereo not given)	-10%	-8%
Cc1ccc(N2CC(NC(=O)C3CCCC3)CC2=O)cc1C (stereo not given)	-15%	2%
COc1ccc(CC(=O)Nc2nc3c(s2)CC(C)CC3)cc1 (stereo not given)	0%	5%
CC(C)c1ccc2oc(=O)cc(-c3oc4ccccc4c3N)c2c1	0%	1%
CC(Sc1ccc(F)cc1)C(=O)NC1(C#N)CCCCC1 (stereo not given)	-2%	4%
CCOc1ccccc1C(=O)NC(C(=O)OCC(C)C)C(C)C (stereo not given)	10%	69%[activator]
COc1ccc(/C=C/C(=O)Nc2cnc3ccccc3c2)cc1OC	13%	-8%
NC(=O)C(NC(=O)NCC(F)(F)F)C(N)=O	48%[activator]	0%
N=C1C(c2nc3ccccc3c(=O)[nH]2)=C(O)CN1c1ccc(Cl)c(Cl)c1	25%	6%
Cc1nc2c(=O)oc3ccccc3c2nc1C	16%	-4%
COc1cc(-c2c(NC(=O)C(C)C)n(C)c3ccccc3c2=O)cc(OC)c1OC	2%	-8%
CC(C)c1ccc(-c2cc(C(=O)O)c3ccccc3n2)cc1	-51%	?
CCC(Oc1ccccc1F)C(=O)NCc1csc(-c2ccccc2)n1 (stereo not given)	?	?
CCc1nnc(NC(=O)C2CC(c3ccccc3)=NO2)s1 (stereo not given)	-6%	-11%
O=C(CSc1ccc2c(c1)OCCO2)c1ccc2c(c1)CCC2	61%[activator]	8%
Cc1cc(C)cc(-n2ccnc2SCC(=O)Nc2nc3ccccc3s2)c1	21%	2%
CCCCn1nc(C(=O)Nc2cccc(C)c2C)c2ccccc2c1=O	4%	-7%
CCC(=O)N1c2ccccc2CC1C(=O)NCc1ccccc1Cl (stereo not given)	-3%	1%
Cc1ccc2c(c1)CCCN2C(=O)c1cc2cc(C)ccc2nc1C	-12%	18%
CCOc1ccc(N2CC(NC(=O)Cc3ccccc3)CC2=O)cc1 (stereo not given)	-13%	-4%
CCCC(=O)N1CCN(c2oc(/C=C/c3cccc(OC)c3)nc2C#N)CC1	11%	4%
CNC(=O)CNC(=O)c1cc(-c2ccc(C)cc2)nc2ccccc12	24%	-9%
CC1Cc2cc(S(=O)(=O)CCC(=O)Nc3ccccc3F)ccc2N1C(=O)C1CC1 (stereo not given)	-11%	0%
COc1ccc(-c2noc(NCCc3ccc(Cl)cc3)n2)cc1	73%[activator]	7%
CSc1ccc(CNC(=O)Cc2csc3ccccc23)cc1	20%	12%
CCCc1ccc(OCC)c(-c2csc(N)n2)c1	-16%	28%
Cc1cc2c(n1-c1ccc(C(=O)NCc3ccccc3Cl)cc1)CCCC2	17%	19%
O=C(Cn1c(=O)n(CCc2ccccc2)c(=O)c2sccc21)c1ccc(Cl)cc1	70%[activator]	-8%
Cc1cc(C)c(NS(=O)(=O)c2ccc(N3C(=O)CCS3(=O)=O)cc2)c(Cl)c1	-2%	-8%
CC(=O)N1CCCc2cc(S(=O)(=O)N3CCCC(C(=O)Nc4ccc(C)c(C)c4)C3)ccc21 (stereo not given)	-4%	-5%
CC(=O)N1CCC(NC(=O)c2cc(C)nc3cc(F)ccc23)CC1	0%	1%
CC(C)Cn1nc(C(=O)N2CC(C(=O)N3CCCCC3)Oc3ccccc32)c2ccccc2c1=O (stereo not given)	-13%	21%
CCCn1c(=O)[nH]c(=O)c2c1nc(-c1ccc(F)cc1)n2CCOC	-3%	-2%
COc1ccc(CCNS(=O)(=O)c2c(C)nc3sccn3c2=O)cc1OC	-21%	-5%

Molecules listed so far that have an NH in an aromatic ring:
SMILES	StopGo FLuc	StopGo RLuc
N=C1C(c2nc3ccccc3c(=O)[nH]2)=C(O)CN1c1ccc(Cl)c(Cl)c1	25%	6%
CCCn1c(=O)[nH]c(=O)c2c1nc(-c1ccc(F)cc1)n2CCOC	-3%	-2%

New compounds follow:
SMILES	StopGo FLuc	StopGo RLuc
CCCc1cc(=O)[nH]c(SC(C)C(=O)NC(=O)NC2CCCCC2)n1 (stereo not given)	10µM*	?
Cc1ccc(NC(=O)c2c(C)oc3ccc(O)c(CN(C)Cc4ccccc4)c23)c(C)c1	9%	3%
O=C(CCC(=O)Nc1ccc(Cl)cc1Cl)N/N=C/c1c2ccccc2cc2ccccc12	7%	45%[activator]
COc1ccc(CN(C)C(=O)c2n[nH]c(=O)c3ccccc23)cc1F	-10%	-6%
COc1ccc(Nc2nc(N3CCN(c4ccccc4OC)CC3)nc3c2cnn3C)cc1	-6%	-6%
CCc1nnc(NC(=O)C(=O)c2cc(C)n(-c3ccccc3)c2C)s1	-32%	1%
CSc1ccc(CCNC(=O)C(C)n2nc(C)c3sc4ccccc4c3c2=O)cc1 (stereo not given)	15%	-7%
COc1ccc(NC(=O)c2ccco2)cc1NC(=O)c1cc(Br)ccc1Cl	30%[activator]	38%[activator]
CCc1ccc(-c2cc(C)no2)cc1S(=O)(=O)Nc1ccc(C)cn1	0%	146%[activator]
COC(=O)c1ccccc1NC(=O)C1CCN(C(=O)N2CC(C)Oc3ccccc32)CC1 (stereo not given)	-4%	-1%

By substructure: the compounds so far with a COOH group (2)
SMILES	StopGo FLuc	StopGo RLuc
Cc1ccc(Oc2ccccc2NC(=O)CC(C)(C)CC(=O)O)cc1	-2%	4%
CC(C)c1ccc(-c2cc(C(=O)O)c3ccccc3n2)cc1	-51%	?

(list continues)
SMILES	StopGo FLuc	StopGo RLuc
COc1cccc(C2=CC(c3ccccc3F)n3ncc(C(=O)Nc4ccc(C)cc4)c3N2)c1 (stereo not given)	6%	84%[activator]
CCOC(=O)c1cnc2ccccc2c1Nc1ccc(N2CCOCC2)cc1	-15%	0%
CCCNC(=O)C(Cc1ccccc1)NS(=O)(=O)c1ccc2c(c1)c(=O)n(C)c(=O)n2C (stereo not given)	?	-11%
CC(C)(C)C(=O)Oc1ccc(S(=O)(=O)Nc2ccccc2C(=O)NCC(=O)O)cc1	-18%	-10%
Cc1ccc(NC(=O)C(=O)NCC(c2ccc3c(c2)OCO3)N2CCN(c3ccccc3)CC2)cc1 (stereo not given)	-18%	-14%
Cc1ccc(-n2cnnc2SCC(=O)Nc2ccc(S(=O)(=O)N3CCCCCC3)cc2)c(C)c1	1%	14%
Cc1oc2ncn(C)c(=O)c2c1C(=O)N1CCN(c2ccc(Cl)cc2)CC1	-9%	-13%
C=CCOc1ccc(CNC2CC2)cc1	24%	0%
CCNS(=O)(=O)c1ccc(NC(=O)C2c3ccccc3Oc3ccccc32)cc1	69%[activator]	45%[activator]
COc1ccc2c(=O)c(Oc3ccccc3Br)c(C)oc2c1	24%	30%[activator]
Cc1ccc(NC(=O)C2CCC(CNS(=O)(=O)c3ccc4c(c3)C(C)(C)C(=O)N4C)CC2)cc1 (stereo not given)	-22%	-12%
CCc1ccc(-c2nn(CC(=O)NC3CCCCC3)c3c2cnc2ccc(C)cc23)cc1	-25%	-19%
CC(C)CNC(=O)C(Cc1ccccc1)NC(=O)C(c1ccccc1)c1ccccc1 (stereo not given)	4%	20%
CCn1c2ccccc2c2cc(CN3CCN(Cc4ccc(OC)c(OC)c4)CC3)ccc21	0%	-9%
Clc1cccc(-c2nn3c(Cn4cnc5ccccc54)nnc3s2)c1	13%	-1%
CN(C)c1oc(-c2ccc(F)cc2)nc1S(=O)(=O)c1ccc2c(c1)OCCO2	-3%	39%[activator]
CSc1ccccc1C(=O)NC1CCC(C)CC1 (stereo not given)	74%[activator]	-13%[1.06 µM]
CN(C)S(=O)(=O)c1ccc2oc(SCCOc3ccc(Br)cc3)nc2c1	12%	-2%
COc1ccc(CC(=O)Nc2c(NCC3CCCCC3)c3ccccc3oc2=O)cc1	-8%	52%[activator]
CC(c1ccco1)N(C(=O)Cc1c[nH]c2ccccc12)C1CC1 (stereo not given)	20%	78%[activator]
Cc1ccc(Cl)cc1NC(=O)Cn1c(=O)oc2cc(S(=O)(=O)N3CCCCCC3)ccc21	-15%	-5%
CCn1c(=O)c(CCC(=O)Nc2cccc(C)c2C)nc2c(C)nn(-c3ccccc3)c21	-10%	-12%
CCC1CCCCN1C(=O)Cn1c(=O)n(CCCCCC(=O)NCc2ccccc2Cl)c(=O)c2sccc21 (stereo not given)	-13%	-6%
CN(CCC#N)C(=O)CSc1nc(C2CC2)nc2ccccc12	-16%	?
Cc1ccc([C@H]2Nc3ccc(S(=O)(=O)Nc4cccc(Cl)c4C)cc3[C@H]3C=CC[C@H]32)cc1	-22%	6%
COc1ccc(C2N3CC4(C)CN2CC(c2ccccc2)(C3)C4=O)cc1 (stereo not given)	-7%	-5%
CCc1ccc(C(CNC(=O)c2cccc3ncccc23)N(C)C)cc1 (stereo not given)	-22%	-21%
c1ccc(NC2(c3nnnn3-c3ccccc3)CCCCC2)cc1	30%	215%[activator]
COc1ccccc1CCNC(=O)C1CCN(c2nnc(C)c3c(C)n(-c4ccc(C)cc4)nc23)CC1	-20%	-9%
CSc1ccc(CN2CCN(Cc3ccncc3)CC2)cc1	?	?

Molecules from the list above that have a thiophene ring, fused or not:
SMILES	StopGo FLuc	StopGo RLuc
CNC(=O)NC(=O)CN(C)C(C)c1cccs1 (stereo not given)	-14%	-7%
O=C(NC1CCc2ccccc21)c1cc2c(s1)CCC2 (stereo not given)	94%[activator]	99%[activator]
CCN(CC)C(=O)Cn1c(=O)n(-c2ccc(C)c(C)c2)c(=O)c2c3c(sc21)CCCCC3	-14%	-2%
CSc1ccc(CNC(=O)Cc2csc3ccccc23)cc1	20%	12%
O=C(Cn1c(=O)n(CCc2ccccc2)c(=O)c2sccc21)c1ccc(Cl)cc1	70%[activator]	-8%
CSc1ccc(CCNC(=O)C(C)n2nc(C)c3sc4ccccc4c3c2=O)cc1 (stereo not given)	15%	-7%
CCC1CCCCN1C(=O)Cn1c(=O)n(CCCCCC(=O)NCc2ccccc2Cl)c(=O)c2sccc21 (stereo not given)	-13%	-6%

(continued)
SMILES	StopGo FLuc	StopGo RLuc
Clc1cc(Cl)c(N/N=C/c2c(Cl)cccc2Cl)c(Cl)c1	29%	11%
CCN(CC)CCCNC(=O)C(C)n1nc(C)n2c(cc3occc32)c1=O (stereo not given)	-9%	-6%
O=C(O)c1ccc(CSC(F)F)o1	16%	19%
COc1ccc(-c2noc(CSc3nc4ccc(Cl)cc4o3)n2)cc1	-11%	-2%
Cc1cc2c(s1)CCCCCCCCCC/C2=N\Nc1ccc([N+](=O)[O-])cc1	14%	6%
CC(C)Oc1ccc(C(=O)NCc2coc(-c3cccs3)n2)cc1	64%[activator]	22%
O=C(Nc1ccccc1Cl)C(=O)NC1CCCC1	203%[activator]	11%
COc1ccc(-c2ccc(CNc3ccc4[nH]c(=O)[nH]c4c3)o2)cc1Cl	-1%	-44%
CCc1cccc(OCC(=O)NC(CC(C)C)C(=O)N(C)C)c1 (stereo not given)	-2%	1%
O=C(c1cccc(Cl)c1)N(Cc1cccc(F)c1)C1CCS(=O)(=O)C1 (stereo not given)	-14%	-6%
Cc1ccc(OCCSc2nc3ccccc3n2CC(=O)N2CCOCC2)c(C)c1	1%	0%
CCOc1ccc(NC(=O)CCNS(=O)(=O)c2ccc3c(c2)CCCC(=O)N3)cc1	-3%	19%
CCCCOc1cccc(C(=O)Nc2sc3c(c2C(=O)OCC)CCCC3)c1	-26%	?
O=C(c1ccc(Br)cc1)N1CCN(c2nc3ccccc3s2)CC1	1%	-3%
CC(NC(=O)c1ccc(Br)o1)c1ccccc1 (stereo not given)	0%	0%
COc1ccc(Nc2nc3ccccc3nc2NS(=O)(=O)c2cc(C)ccc2C)c(OC)c1	12%	8%
COc1ccc(CNC(=O)Cc2c(C)c3ccc(OC(C)=O)cc3oc2=O)cc1OC	0%	28%
CCC(C)c1ccccc1OC(=O)c1ccc(OC)c(I)c1 (stereo not given)	3%	2%[1.06 µM]

This is a subset; the hit share may differ from the screen's.
